HIV Env fusion – HIV envelope-mediated fusion inhibition. 1.1% of 360,000 active. HeLa-JRFL Env/CEM21 cell fusion, luciferase. inhibition, % at 12.3 µM;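 active = mean replicate inhibition score of at least 50 and every replicate individually at or above 50; inconclusive = only one of the two criteria met; inactive = mean below 50 and not all replicates reaching 50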;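 also: 0% = plate neutral controls and 100% = maraviroc near 300 nM; one replicate is shown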
Yeast UUG start – yeast start codon fidelity modulation | 0.13% of 350,000 active | S. cerevisiae UUG-firefly luciferase reporter, luminescence/redox ratio | activity score, % at 18.7 µM;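 active = replicate mean at a twofold rise or more, about +100% in these data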;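 also: firefly luciferase made from a UUG start codon reports start codon fidelity; reporter light over untreated wells divided by growth signal over untreated wells; some hits fall short of that in this replicate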
CSC inhib – blocks cancer stem cells; cancer stem cell-like cells viability, luminescence; AID 2717; 1.1% of 300,000 active; inhibition, % at 7.5 µM;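 active = mean at 75% or more and at least half the replicates too; inconclusive = mean and replicates disagree; tested in HMLE shEcad cells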;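 also: 0% = median of negative and 100% = median of positive control wells; the first replicate is given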
eIF4H inh – inhibitors of RNA binding by human eIF4H. AID 2012. inhibition, % at 35 µM. Q15056. eIF4H fluorescence polarization binding assay. 0.94% of 290,000 active;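 active = 50% or more with normal probe brightness, or confirmed in later tests; inconclusive = above 50% with abnormal brightness, or retests that disagree; inactive = below 50% or failed in later tests; about a fifth of its hits are not listed in these tables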;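 also: calls also rest on retests at 20 µM and on dose response follow-up; 0% = protein and probe with vehicle and 100% = probe without protein; strong numbers were not always called active; many hits fall short of the cut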
MT1-MMP act inh – inhibitors of human MT1-MMP activation; 0.061% of 360,000 active; HT1080 RFP-PRO-GFP cells, GFP/RFP ratio fluorescence, overnight; percent of plate control window, DMSO zero; GFP/RFP ratio change, % at 20 µM;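 active = GFP/RFP ratio change of at least 30% with cell ATP level not reduced by more than half and red fluorescence within 50% of control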; also: strong numbers were not always called active
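Material: RFP-PRO-GFP reporter HT1080 cells. Dosing: single-point 20 µM compound, 1% DMSO. Controls: DMSO and RFP-L50D-GFP cell wells. Timing: cells overnight before dosing, compound overnight, 37 °C, 5% CO2. Measure: GFP/RFP fluorescence ratio.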
Rce1 inhib – yeast Ras-converting enzyme inhibition; Q03530; yeast membranes, quenched prenylated peptide cleavage fluorescence; calls only; 0.27% of 290,000 active; AID 2563;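 active = fall in fluorescence gain of 50% or more versus controls, with final raw signal at or below 3038400; inconclusive = same 50% fall but final raw signal above 3038400; inactive = fall in fluorescence gain under 50%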;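 also: plate controls were neutral control wells for no effect and wells lacking membranes for full effect; tested at 10 µM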
Target sequence (Q03530 whole entry, looked up): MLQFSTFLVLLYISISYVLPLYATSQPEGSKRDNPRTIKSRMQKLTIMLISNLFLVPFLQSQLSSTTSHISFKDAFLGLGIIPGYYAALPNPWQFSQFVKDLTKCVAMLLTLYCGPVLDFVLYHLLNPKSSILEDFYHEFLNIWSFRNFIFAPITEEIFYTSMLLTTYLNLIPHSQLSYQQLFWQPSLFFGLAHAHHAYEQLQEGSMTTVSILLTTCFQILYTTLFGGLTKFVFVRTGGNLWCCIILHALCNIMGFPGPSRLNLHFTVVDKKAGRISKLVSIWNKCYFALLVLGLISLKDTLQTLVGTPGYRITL
PABP FP inh – PABP-poly(A) binding inhibition; P11940; PABP-poly(A) RNA binding, fluorescence polarization; inhibition, % at 35 µM; 1% of 290,000 active;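 active = 50% or more with normal probe brightness, or confirmed in later tests; inconclusive = above 50% with abnormal brightness, or retests that disagree; inactive = below 50% or failed in later tests; about a fifth of its hits are not listed in these tables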;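 also: calls also rest on retests at 20 µM and on dose response follow-up; controls were probe without protein and protein plus probe with vehicle; some compounds called inactive have numbers as strong as hits; many hits fall short of the cut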
eIF4H inh retest – also measured in eIF4H inh; calls as there; inhibition, %; compound at 20 µM; confirmation average;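 mean of two retest wells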
PABP FP inh retest – recorded beside PABP FP inh, whose call it bears; inhibition, %; compound at 20 µM; confirmation repeats;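 mean of two retest wells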
MT1-MMP act inh RFP – recorded beside MT1-MMP act inh, whose call it bears; RFP signal change, %; measured here: RFP expression control read;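 0 = vehicle wells; hits needed this value within 50% of zero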
The depositor's hits bear a star; i = inactive; u = inconclusive; x = no result given; + = active, no number.

SMILES	HIV Env fusion	Yeast UUG start	CSC inhib	eIF4H inh	MT1-MMP act inh	MT1-MMP act inh RFP	Rce1 inhib	PABP FP inh	others
O=C(Nc1ccc(Cl)cc1)C1Cc2c(-c3ccc4c(c3)OCO4)ccnc2O1 (stereo unspecified)	-13	-10	x	x	8	-8	x	x
CC(C)N(Cc1nc2ccccc2c(=O)[nH]1)C(=O)c1ccc(NC(=O)CSc2nnnn2C)cc1	x	-17	-15	x	3	-2	x	x
CCOC(=O)c1ccc(NC(=O)c2nc[nH]c2C(=O)N(CC)CC)cc1	5	-9	x	-2	-2	1	i	-2
Cc1ccc(-n2nnnc2SCC(=O)c2c(N)n(C3CC3)c(=O)[nH]c2=O)cc1	17	-16	x	x	-1	1	x	x
CC(C)C(=O)Nc1c(-c2ccccc2Cl)c(=O)c2ccccc2n1C	-3	-4	3	6	1	4	i	8
COc1ccc2c(c1)c(C)cc[n+]2Cc1ccccc1	1	-15	-6	-13	-1	-17	i	0
CC1=CC(c2ccccc2)n2nc(NC(=O)CCCC(=O)O)nc2N1 (stereo unspecified)	4	-17	-6	-6	-2	5	i	4
Nc1c(C(=O)O)sc2nc(-c3ccccc3)cc(-c3ccc(F)cc3)c12	3	x	-7	41	-34	2	i	46
O=C(CCN1C(=O)/C(=C/c2cccs2)SC1=S)Nc1ccc(C(=O)O)c(O)c1	-5	0	1	19	3	6	i	13
CC(C)n1c(N2CCN(C(=O)Nc3ccccc3)CC2)nc2ccccc21	-474	-9	-2	-4	-9	-10	i	-6
COc1ccc2nc(C)cc(C(=O)O)c2c1	x	-18	-1	1	0	4	i	7
O=C(Cc1ccc([N+](=O)[O-])cc1)Nc1nnc(C2CC2)s1	x	x	-5	-7	11	6	i	-3

Grouped by structure, those above with sulfur (5)
SMILES	HIV Env fusion	Yeast UUG start	CSC inhib	eIF4H inh	MT1-MMP act inh	MT1-MMP act inh RFP	Rce1 inhib	PABP FP inh	others
CC(C)N(Cc1nc2ccccc2c(=O)[nH]1)C(=O)c1ccc(NC(=O)CSc2nnnn2C)cc1	x	-17	-15	x	3	-2	x	x
Cc1ccc(-n2nnnc2SCC(=O)c2c(N)n(C3CC3)c(=O)[nH]c2=O)cc1	17	-16	x	x	-1	1	x	x
Nc1c(C(=O)O)sc2nc(-c3ccccc3)cc(-c3ccc(F)cc3)c12	3	x	-7	41	-34	2	i	46
O=C(CCN1C(=O)/C(=C/c2cccs2)SC1=S)Nc1ccc(C(=O)O)c(O)c1	-5	0	1	19	3	6	i	13
O=C(Cc1ccc([N+](=O)[O-])cc1)Nc1nnc(C2CC2)s1	x	x	-5	-7	11	6	i	-3

Further structures:
SMILES	HIV Env fusion	Yeast UUG start	CSC inhib	eIF4H inh	MT1-MMP act inh	MT1-MMP act inh RFP	Rce1 inhib	PABP FP inh	others
NC(=O)NCc1ccccc1F	-1	5	-20	-2	0	2	x	-3
COc1cc(NC(=O)c2ccc3c(c2)OCCO3)ccc1NC(=O)c1cccs1	-7	x	19	0	3	3	i	4
COC(=O)c1sccc1OCc1cccc(OC)c1	-4	x	9	-5	0	-1	i	0
CCC(c1nnc(SCC(=O)NCC2CCCO2)n1Cc1ccccc1)N(C)C (stereo unspecified)	x	-5	-8	x	-2	3	x	x
C[C@H](NCc1c[nH]c2ccccc12)c1ccccc1	28	4	-5	6	-2	-4	i	-8
CCCc1ccc2oc(C(=O)N3CCCC3)c(C)c2c1	-36	-5	x	2	0	-3	i	5
CC(=O)Nc1ccc2nc(NC(=O)COc3ccccc3Cl)sc2c1	-20	-19	x	-6	7	0	i	0
CCn1c(SCC(=O)Nc2cccc(C)n2)nc2c1c(=O)n(C)c(=O)n2C	5	x	x	1	1	-1	i	1
OC(CNCc1ccc(Cl)cc1)COc1ccccc1 (stereo unspecified)	3	-4	2	14	2	1	i	1
C#CCN(C[C@H]1[C@H](OC(=O)NCc2ccccc2)[C@H](OC(=O)NCc2ccccc2)C[C@H]2C(=O)N(c3ccccc3)C(=O)[C@@H]12)S(=O)(=O)c1ccc(C)cc1	1	1	x	x	0	1	x	x
C=CCn1c(SCc2nc3scc(-c4ccccc4)c3c(=O)[nH]2)nnc1-c1ccccc1F	x	-15	-2	u	-6	-9	i	-11
CC(C)(Oc1ccc(C2CC2(Cl)Cl)cc1)C(=O)O (stereo unspecified)	8	1	-5	x	1	4	x	x
COCCN(C(=S)Nc1ccccc1OC)C1CCN(C(C)C)CC1	0	-24	x	-6	0	1	i	37
COC(=O)NCC(c1ccco1)N1CCN(c2ccc(OC)cc2)CC1 (stereo unspecified)	-4	x	-4	2	-2	-1	i	-6
COc1ccc(/C=N/NC(=O)CN(CCc2ccccc2)S(=O)(=O)c2ccc(NC(C)=O)cc2)cc1OC	x	x	13	2	1	-5	i	1
Nc1nc2ccccc2n1CCN1CCCC1	x	-15	2	1	5	-1	i	-6
O=C(NCCCN1CCOCC1)c1cccc(NC(=O)c2ccccc2)c1	4	-19	-6	x	1	1	i	x
O=C(NC1CCCCC1)NC12CC3CC(CC(C3)C1)C2	7	-24	3	-2	x	x	x	-6
O=C(NNC(=O)c1cccc(O)c1)Nc1ccc([N+](=O)[O-])cc1	7	x	3	-14	4	0	i	-10
CC1CN(S(=O)(=O)c2cc(C(=O)NCc3ccncc3)ccc2Cl)CC(C)O1 (stereo unspecified)	x	-10	0	x	-4	-8	x	x
O=C(O)C1C2C=CC(CC2)C1C(=O)O (stereo unspecified)	15	x	-9	6	4	7	i	3
C/C(=N\OCC(=O)NC12CC3CC(CC(C3)C1)C2)c1cc2ccccc2o1	17	-18	29	3	-4	-12	i	12
COc1ccc(CNC(=O)CN2C(=O)CSc3ccc(S(=O)(=O)N4CCOCC4)cc32)c(OC)c1	3	1	21	-12	-4	1	i	-1
O=C(NC12CC3CC(CC(C3)C1)C2)c1cc(F)c(F)cc1Cl	15	-20	-11	-8	-2	-2	i	-2
COc1ccc(NC(=O)c2c(C)nn(-c3ccccc3)c2Cl)cc1	-31	-9	-5	5	4	2	i	18
CC(C)C[C@H]1CN=C(Nc2ccccc2)N1CCc1ccc(F)cc1	-22	-8	1	x	2	0	x	x
CCNC(=S)Nc1cc(OCC)c(NC(=O)c2ccco2)cc1OCC	0	x	-8	-6	3	4	i	-7
CCOC(=O)N1CCC(Nc2c(NCCCN(CC)CC)c(=O)c2=O)CC1	3	-7	8	-2	2	5	i	-10
O=C1[C@H](O)[C@@H](O)C(=O)N1Cc1ccccc1	-9	-10	-12	3	1	2	i	0
CSC[C@H](NC(=O)COc1cc2c(c3oc(=O)cc(C)c13)CCC(C)(C)O2)C(=O)O	-22	4	2	-9	4	-2	+	5
COc1ccccc1-c1nnn(CC#N)n1	-23	-10	3	7	-3	-3	i	3
COC(C[C@H]1O[C@@H]1[C@@H](O)[C@H](C)OCc1ccccc1)OC	0	-2	x	-1	2	5	i	2
Cn1c(-c2ccccc2)cnc1NCc1ccccc1	-12	-9	-12	16	2	1	i	7
CCCCn1c(N)c(N(Cc2ccccc2OC)C(=O)CCC(C)C)c(=O)[nH]c1=O	-1	-10	-15	1	-3	2	i	4
CC(C)(C)OC(=O)N1CCC(NC(=O)c2[nH]c(C(F)(F)F)nc2-c2ccccc2)CC1	3	-8	x	x	3	0	x	x
COc1ccc(C(=O)N(C)C2(C)CCS(=O)(=O)C2)cc1OC (stereo unspecified)	5	x	-5	x	8	0	i	x
O=C(NCC(c1ccc(F)cc1)N1CCOCC1)c1cccnc1Sc1ccccc1 (stereo unspecified)	-7	-2	4	x	-6	2	i	x
COc1ccccc1NC(=O)CSc1nnnn1-c1ccc2c(c1)OCO2	x	-8	-2	-8	2	0	i	-6
CCC(=O)Nc1c(-c2cccs2)c(=O)c2ccccc2n1C	-11	-10	-1	0	14	10	x	62	eIF4H inh retest=-2;PABP FP inh retest=3
COC(=O)c1sc(-c2ccc(C(C)(C)C)cc2)cc1NC(=O)CSCC(=O)O	-17	x	27	4	2	3	i	7
COCCC(=O)N1CCC(Oc2ccc(C(=O)NCc3csc(C)n3)cc2)CC1	-2	11	10	0	0	1	i	-4
COc1ccc2cc(C(=O)C3CCCN(C(=O)c4cc(=O)n(C)c(=O)n4C)C3)ccc2c1 (stereo unspecified)	-7	9	19	0	-1	-2	+	0
CCc1ccc(OCCCC(=O)Nc2ccc(N3CCCCC3)cc2)cc1	8	-16	10	-3	3	5	i	6
CN1C(=O)C(CC(=O)Nc2ccc3c(c2)Cc2ccccc2-3)N(C)C1=O (stereo unspecified)	x	-8	-12	1	-1	6	i	-11
CN(C)S(=O)(=O)c1cccc(NC(=O)/C=C/c2ccc(S(=O)(=O)N3CCOCC3)cc2)c1	27	2	-9	x	-10	-25	x	x
COc1ccc(Nc2ccc(S(=O)(=O)N3CCCCC3)cc2[N+](=O)[O-])cc1OC	x	x	-20	1	-3	-13	i	8
O=C(CCNC(=O)c1ccc(Cl)cc1)Nc1ccc(F)cc1F	-15	x	14	0	0	2	i	0
Cc1ccc(-c2ccc(/C=C(\C#N)C(N)=S)o2)c([N+](=O)[O-])c1	-38	x	x	44	-2	1	x	36
O=C(COC(=O)c1ccco1)Nc1ccccc1	x	-20	-10	-8	7	3	i	4
CN(C(=O)/C=C/c1ccco1)c1ccccc1C(=O)O	0	7	-7	88	0	4	i	-1	eIF4H inh retest=-4;PABP FP inh retest=-2
CC(C)Oc1ccc(S(=O)(=O)N2CCOCC2)cc1NC(=O)C1COc2ccccc2O1 (stereo unspecified)	18	-11	x	x	-2	-8	x	x
CCc1nc2c(OCC(=O)c3ccc(F)cc3)cccn2c1N(C)C(=O)c1ccccc1F	16	-16	x	x	0	0	x	x
CCN(C(=O)Cn1c(=O)n2nc(CCn3nc(C)cc3C)nc2c2ccccc21)c1cccc(C)c1	22	-16	-20	9	-2	3	x	-4
O=C(CN1CCN(S(=O)(=O)N2CCOCC2)CC1)Nc1ccc(Cl)c(Cl)c1	18	-11	-9	-16	2	0	i	3
OCc1ccc2c(c1)c(-c1ccc3c(c1)OCCO3)c(-c1ccccc1)n2-c1ccccc1	-61	-11	92*	x	-5	-10	x	x
CCC1=NN2C(=N)/C(=C\c3cccn3-c3ccc(OC)cc3)C(=O)N=C2S1	10	-9	6	-12	0	0	i	5
CC(=O)c1noc(C)c1C(=O)Nc1nccs1	x	-14	-3	-10	-3	2	i	-4
COc1ccccc1Nc1nc2c(s1)CCC2	x	-6	-10	12	1	4	i	-2
CCc1nnc(NC(=O)CN2C(=O)NC3(CC(C)CC(C)(C)C3)C2=O)s1 (stereo unspecified)	-27	-2	x	-4	0	0	i	1
Cc1cc(=O)n(CCCO)c(O)c1C#N	x	-11	2	u	-3	5	i	u

The list goes on:
SMILES	HIV Env fusion	Yeast UUG start	CSC inhib	eIF4H inh	MT1-MMP act inh	MT1-MMP act inh RFP	Rce1 inhib	PABP FP inh	others
CC(=O)NCc1ccc(C(=O)COC(=O)COc2ccc(Cl)c(C)c2)s1	48	-23	-15	x	0	1	x	x
O=C(NCc1ccccn1)c1ccc(Cl)s1	x	-31	8	6	2	1	i	-10
COc1ccc(NC(=O)c2cc(-c3cc(Cl)ccc3O)n[nH]2)c(OC)c1	20	-2	11	-3	4	1	i	-3
CCc1cc2c3c(c(=O)oc2cc1O)CCCC3	x	-15	0	-9	0	4	i	-5
O=C(Nc1ccc2c(c1)CCC2)c1cc2ccccc2o1	-455	-14	60	-5	5	-3	i	0
NC(=O)[C@@H]1CCCN1C(=O)c1ccc2nc(Cc3ccccc3F)oc2c1	2	-3	-3	-7	-2	2	i	-6
CC(C)Oc1c(Br)cc(Br)cc1/C=N/NC(N)=S	-85	-13	16	-8	1	-11	i	5
